Bioassay records as filed in PubChem BioAssay.
GLA inh pH 4.5: qHTS Assay for Inhibitors of Human alpha-Galactosidase at pH 4.5; Alpha-galactosidase A (Homo sapiens), P06280; purified enzyme, 4-MU-alpha-Gal fluorescence, pH 4.5; activity change, negative = inhibition, % at 105 µM; 230,000 tested, under 10 active; inconclusive = small, poorly fitted or top-dose-only inhibition, or a rising curve; inactive = flat fitted curve, though single readings scatter; no compound was filed as active;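 note: 0% = full activity with enzyme and -100% = basal without enzyme; dose as in the result columns while the protocol names 77 µM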
Rango dissoc inh: qHTS Assay for Inhibitors of RanGTP induced Rango (Ran-regulated importin-beta cargo) - Importin beta complex dissociation; Potency, µM (highest dose often 46.1 µM), for the others: at the highest dose activity change, negative = inhibition; Snurportin-1 (Homo sapiens) + GTP-binding nuclear protein Ran (Homo sapiens) + Importin …; Biochemical FRET Rango-importin beta, RanGTP-induced dissociation; AID 540253, 2011; 340,000 tested, 0.071% active; active means falling FRET ratio curve, often poorly fitted, with flat reads before Ran was added; inconclusive means other falling curves, or compound fluorescence or quenching; inactive means flat or rising ratio curve;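 note: potency is the fitted concentration of half-maximal effect; % of control where 0% means no effect; nearly all actives have a fitted effect of over 45% in size; -100% = wells without RanGTP and RCC1; the record marks most hits as doubtful in a second field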
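FRET read at 45 min, room temperature: inhibitors block the CFP/YFP signal rise when RanGTP (0.6 uM Ran, 2 mM GTP, 0.2 uM RCC1) frees Rango (0.1 uM) from importin beta (0.25 uM). Pre-read after 5 min compound exposure flags interference.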
Rango-impB inh: qHTS Assay for Inhibitors of Rango (Ran-regulated importin-beta cargo) - Importin beta complex formation | Importin subunit beta-1 (Homo sapiens), Q14974 | Rango CFP/YFP FRET sensor + importin beta, 45 min | Potency, µM (series often up to 92.2 µM), without a hit: at the top dose inhibition of complex formation | 340,000 tested, 0.031% active | AID 540263, 2011; active = rising FRET ratio curve, often small or poorly fitted; inconclusive = mostly compound fluorescence or quenching in the first reads; inactive = flat curves in all reads;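 note: potency is the fitted concentration of half-maximal effect; 0% = DMSO wells and 100% = buffer wells lacking importin beta; nearly all actives have a fitted effect of over 15% in size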
Target sequence (Q14974 whole entry, looked up): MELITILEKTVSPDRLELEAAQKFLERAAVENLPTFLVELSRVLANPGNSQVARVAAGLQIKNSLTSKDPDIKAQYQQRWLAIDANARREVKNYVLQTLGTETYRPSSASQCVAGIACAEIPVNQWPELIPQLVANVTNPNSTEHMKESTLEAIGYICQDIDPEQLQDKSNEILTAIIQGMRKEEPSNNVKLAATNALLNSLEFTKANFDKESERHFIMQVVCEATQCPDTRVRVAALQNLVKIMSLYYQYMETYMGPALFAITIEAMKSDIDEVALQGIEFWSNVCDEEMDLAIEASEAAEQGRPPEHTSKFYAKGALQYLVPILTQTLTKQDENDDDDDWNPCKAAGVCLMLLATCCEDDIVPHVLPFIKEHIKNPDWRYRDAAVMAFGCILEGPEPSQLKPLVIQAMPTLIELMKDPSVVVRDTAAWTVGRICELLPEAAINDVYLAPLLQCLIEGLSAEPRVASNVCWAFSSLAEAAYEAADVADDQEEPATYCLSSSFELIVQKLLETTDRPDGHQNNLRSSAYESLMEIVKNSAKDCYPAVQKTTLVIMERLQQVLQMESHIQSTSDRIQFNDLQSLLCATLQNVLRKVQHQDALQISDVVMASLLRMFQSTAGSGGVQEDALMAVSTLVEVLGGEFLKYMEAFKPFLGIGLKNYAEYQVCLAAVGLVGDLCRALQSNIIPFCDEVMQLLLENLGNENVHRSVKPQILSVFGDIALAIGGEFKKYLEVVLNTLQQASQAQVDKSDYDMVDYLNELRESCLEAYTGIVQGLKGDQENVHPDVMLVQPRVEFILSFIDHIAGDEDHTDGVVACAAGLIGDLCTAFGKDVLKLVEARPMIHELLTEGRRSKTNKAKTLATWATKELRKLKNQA
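Inhibition scored from the CFP 486 nm/YFP 530 nm FRET ratio 45 min after adding 0.125 microM importin beta to 50 nM Rango biosensor preincubated 5 min with compound (room temperature, PBS with DTT, Tween-20, BSA). No-importin wells as positive control.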
miR-21 reporter: qHTS Assay for Modulators of miRNAs and/orActivators of miR-21 | 340,000 tested, under 10 active | Potency, µM (titrated, usually from 38.3 µM), inactives show at the top dose reporter change, positive = more light | HeLa miR-21 FLuc reporter, luciferase, 48 h; active = well fitted rising curve with a large enough effect; inconclusive = small, poorly fitted or top-dose-only effect; inactive = no such curve, though single readings can be large or run the other way;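 note: % of control where 0% means no effect; miR-21 action dims this reporter so a rising signal means less miR-21 action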
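HeLa cells endogenously expressing miR-21, stably carrying CMV-driven firefly luciferase with a downstream miR-21 binding site, 2000 cells/well. Titrations up to approximately 40 uM, 48 hours; luciferase luminescence read.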
Active calls of the source: *; u = inconclusive; x = not tested or not shown; & = joins results of further samples. The list is partial; rates above refer to the full screens.

SMILES	GLA inh pH 4.5	Rango dissoc inh	Rango-impB inh	miR-21 reporter
CN(Cc1cccc(F)c1)CC(O)COCc1ccccc1Cl (stereo not drawn)	3.4	u	u	-1.3%
CC(C)=CCc1c2c(c3occ(-c4ccc(O)cc4)c(=O)c3c1O)C=CC(C)(C)O2	2.4	3.5%	1.0%	6.6%
COc1ccc(N2CCC(CNC(=S)Nc3c(C)cccc3C)C2)cc1 (stereo not drawn)	-1.4	-6.5%	-2.9%	3.1%
CN(CC(=O)NCc1ccccc1)Cc1cccc(F)c1	x	17.9%	8.1%	-6.6%
COc1cccc(NC(=O)N(CCCN2CCOCC2)C(C)c2cc3cccc(OC)c3o2)c1 (stereo not drawn)	-0.9	-1.7%	-0.3%	-8.0%
Cc1noc(C)c1COc1ccc(C(=O)OCc2nnc(-c3ccc(Cl)cc3)o2)cc1	3.3	1.6%	-2.4%	-6.2%
CC1CCCCN1C(=O)CN1C(=O)c2ccccc2S1(=O)=O (stereo not drawn)	x	-0.6%	-0.2%	x
Cc1cc(Cl)ccc1N(CC(=O)NCCSCc1ccco1)S(C)(=O)=O	-1.0	5.7%	-9.7%	-2.3%
CC(=O)N1CCN(CC(=O)Nc2ccccc2C(=O)Nc2ccccc2)CC1	x	-9.5%	-1.3%	x
CCc1ccn2cc(-c3cc(-c4ccccc4)no3)nc2c1	-0.7	10.2%	-1.2%	15.9%
C=CCN1C(=O)N(CC=C)c2cccc3cccc1c23	x	-10.0%	1.0%	-13.6%
CCNc1nc(NCC)nc(SCCOC(=O)Nc2ccccc2)n1	-4.3	6.6%	-0.6%	-36.2%
Cc1ccc(-c2nn(-c3cccc(F)c3)cc2CNCc2cccnc2)o1	-6.2	-21.7%	u	-15.0%
CCOC(=O)c1ccccc1NC(=O)c1cc2sccc2n1C	-3.9	-4.5%	-0.3%	0.4%
O=C(O)CN1CCNCC1	3.5	x	x	-1.6%
Cn1c(CC(=O)NNC(=O)c2cncc(Br)c2)nc2ccccc21	x	3.1%	-1.8%	x
Cc1cccc(C(=O)NC2CCN(C(=O)N3CCOCC3)CC2)c1	8.5	14.8%	1.7%	-4.8%
CCN(CC)c1ccc(CN2CCC(C(=O)NCc3ccc(C)cc3)CC2)cc1	4.6	0.3%	-0.8%	1.1%
CCCCC[C@@H]1C=C(C(=O)O)[C@H](c2ccc(C)cc2)N1S(=O)(=O)c1ccc(C)cc1	x	1.5%	0.2%	x
CC(C)CC1C(C#N)=C(N)Oc2n[nH]c(-c3ccccc3)c21 (stereo not drawn)	-5.6	0.2%	-0.4%	-3.9%
O=C1C2CCCN2C(c2ccccc2F)N1c1ccc(F)cc1 (stereo not drawn)	-5.0	-10.5%	u	-1.8%
O=C(c1cccc2ccccc12)C1CCCN(C(=O)CCc2cnccn2)C1 (stereo not drawn)	-2.1	-12.1%	1.8%	-9.7%
O=C(O)CSc1nnc(-c2ccc(Cl)cc2Cl)n1Cc1ccccc1	x	10.0%	0.1%	-5.2%
O=C(CCc1nnc(-c2ccc3c(c2)OCO3)o1)NCCc1ccccc1F	x	0.5%	-0.2%	-12.8%
O=C(Nc1nccs1)C(Br)C(Br)c1ccccc1 (stereo not drawn)	x	-8.3%	-0.4%	-9.7%
CC(Cc1ccccc1)C(=O)Nc1ccccc1 (stereo not drawn)	-1.8&2.4	8.0%	0.7%	-15.1%
CCn1c(SCC(=O)N(C(C)C)C(C)C)nnc1-c1cc2ccccc2cc1O	1.5	-6.8%	u	16.2%
Cn1cc(C(c2ccccc2OCC(=O)O)c2cn(C)c3ccccc23)c2ccccc21	x	2.6%	0.6%	1.2%
COc1ccc(OCCNC(=O)CSc2ccc(C(F)(F)F)cc2[N+](=O)[O-])cc1	-4.4	-4.4%	-0.5%	-5.1%
COc1ccc(OCC(CO)N2CCN(c3ccccc3)CC2)cc1 (stereo not drawn)	x	13.3%	-2.5%	x
Cc1c(CCOC(=O)c2cc([N+](=O)[O-])cc([N+](=O)[O-])c2)sc[n+]1CC(=O)c1ccc(Br)cc1	-9.8	6.3%	-1.0%	-4.8%
COc1ccc(-c2nc(S(=O)(=O)c3ccccc3)c(NCCCN3CCOCC3)o2)cc1	x	-7.4%	-0.8%	x
C[C@H](CO)N1C[C@H](C)[C@@H](CN(C)S(=O)(=O)c2cn(C)cn2)Oc2c(NS(=O)(=O)c3cn(C)cn3)cccc2C1=O	x	-6.7%	1.5%	x
COC(=O)c1ccc(Oc2nc(N3CCCCC3)nc(N3CCOCC3)n2)cc1	-13.1	11.9%	u	-1.3%
CC(=O)c1cccc(NC(=O)CSc2nnc(-c3cccnc3)o2)c1	-4.2	-5.2%	-1.4%	-7.6%
O=C(CCN1C(=O)c2ccccc2C1=O)N1CCN(C(=O)c2ccccc2)CC1	-4.8	12.5%	6.2%	-1.6%
COc1ccccc1NC(=O)CCS(=O)(=O)c1ccccc1	5.2	-7.5%	3.0%	-11.7%
COCCNC(=S)Nc1cc(OC)c(OC)cc1C#N	4.2	3.6%	1.4%	-0.2%
O=C(CN1C(=O)NC2(CCCC2)C1=O)Nc1cc(S(=O)(=O)N2CCCCC2)ccc1Cl	x	2.9%	-0.3%	x
Cc1ccc(-c2nc(CS(=O)CC(=O)NCc3ccc(Cl)cc3)c(C)o2)cc1 (stereo not drawn)	0.7	-10.4%	3.1%	-4.7%
O=S(=O)(c1ccc(Cl)cc1)c1snnc1-c1ccccc1	3.0	0.2%	-7.2%	u
Cc1nc(CNC(=O)c2cc(COc3c(F)cccc3F)on2)cs1	-2.9	-8.6%	0.0%	1.7%
CCOc1ccc(S(=O)(=O)N2CCC(C(=O)N3CCCC3)CC2)cc1C	x	-8.0%	0.5%	1.3%
O=C(NNC1OC(CO)C(O)C(O)C1O)c1cccnc1 (stereo not drawn)	-5.1	9.6%	-0.3%	-2.2%
N/C(=N\OC(=O)CCCc1ccccc1)c1ccccc1	x	-1.0%	0.1%	-33.3%
CC(C)Oc1ccc(N2CC(C(=O)Nc3ccccc3F)CC2=O)cc1 (stereo not drawn)	-1.1	29.5%	0.2%	-1.6%
O=C(c1cccnc1)N1CCN(C(=O)c2cccs2)CC1	-1.8	-1.6%	-2.1%	-0.7%
Cc1cccc2cc(CN(CC3CCCO3)C(=O)c3ccco3)c3nnnn3c12 (stereo not drawn)	-1.6	x	x	1.2%

Just Rango-impB inh, Rango dissoc inh and miR-21 reporter, for 2 of the compounds above:
| canonical_smiles | Rango-impB inh | Rango dissoc inh | miR-21 reporter |
| --- | --- | --- | --- |
| CCCCC[C@@H]1C=C(C(=O)O)[C@H](c2ccc(C)cc2)N1S(=O)(=O)c1ccc(C)cc1 | 0.2% | 1.5% | x |
| CC(C)CC1C(C#N)=C(N)Oc2n[nH]c(-c3ccccc3)c21 (stereo not drawn) | -0.4% | 0.2% | -3.9% |

Carrying on.
SMILES	GLA inh pH 4.5	Rango dissoc inh	Rango-impB inh	miR-21 reporter
COc1cccc(CNC(=O)Cn2ccc3cc(S(=O)(=O)N4CCCCCC4)ccc32)c1OC	x	u	-2.1%	13.2%
CCOc1ccc(CCNC(=O)COC(=O)c2ccccc2O)cc1OCC	-18.0	-11.5%	-1.5%	5.9%
COc1ccc(C)cc1NC(=O)C(Sc1nnc(Nc2cc(C)ccc2OC)s1)c1ccccc1 (stereo not drawn)	0.4	0.4%	-2.5%	12.2%
CSc1ncc(Cl)c(C(=O)C(C#N)c2nc3c(C)cc(C)cc3c(=O)[nH]2)n1 (stereo not drawn)	1.8	15.2%	2.4%	-4.9%
CNC(=O)COC(=O)c1cc(=O)[nH]c2ccccc12	9.3	-0.1%	-3.3%	-2.5%
Cc1ccc(CNC(=O)CN(c2ccc(Cl)cc2)S(C)(=O)=O)cc1	x	-7.9%	0.0%	-38.9%
Cc1ccc(S(=O)(=O)Nc2ccc(O)c(S(=O)(=O)c3ccc(C)cc3)c2)cc1	x	2.4%	0.6%	1.1%
CCn1cc(C(=O)Nc2ccc(C)cc2[N+](=O)[O-])c(C)n1	x	9.3%	-0.7%	x
O=C(CCc1ccccc1)Nc1ccc(S(=O)(=O)Nc2nccs2)cc1	x	-0.1%	6.3%	-2.2%
CN(C)CCCN(C(=O)COc1ccccc1)c1nc2c(F)cccc2s1	-6.5	-3.7%	2.6%	-1.2%
COc1ccc(-n2c(=S)[nH]c3cc(C(=O)NCc4ccco4)ccc3c2=O)cc1OC	3.1&-2.6	u	-2.0%&-2.3%	-10.2%&-4.6%
COc1ccccc1-c1oc2ccccc2c1-c1ccc2cc[nH]c2c1	x	12.4%	1.1%	x
CCCCCCCn1c(NC(=O)CC)nc2ccccc21	-3.3	-13.7%	-2.8%	u
Cc1ccc(S(=O)(=O)NCC(c2ccccc2)N2CCCCC2)cc1 (stereo not drawn)	-3.8	0.5%	6.5%	0.9%
O=C(O)c1ccc(Nc2nc(-c3ccccc3)c3ccccc3n2)cc1	5.6	-16.5%	u	2.4%
Cn1c(SCC(=O)c2cc3ccccc3o2)nnc1-c1ccccc1	-1.0	13.6%	6.0%	0.4%
Cc1ccc(N2CC(C(=O)Nc3ccccc3N3CCCC3)CC2=O)cc1 (stereo not drawn)	x	-3.3%	-1.7%	-5.0%
COc1ccc(CC(=O)NCC(=O)N/N=C(/C)c2ccco2)cc1	2.1	-6.9%	-0.2%	0.0%
Cc1cnc(C(=O)OCC(=O)N(C(C)C)C(C)C)cn1	-2.9	-5.0%	0.4%	-0.8%
Cc1ccc(NC(=O)C2CCCN2S(=O)(=O)c2ccc3c(c2)n(C)c(=O)c(=O)n3C)cc1C (stereo not drawn)	-1.1	-10.7%	u	-0.9%&-13.1%
CC(C)(C)C(=O)Nc1ccc(C(=O)CN2C(=O)NC3(CCOc4ccccc43)C2=O)cc1 (stereo not drawn)	x	-5.5%	0.2%	x
COc1cccc(OCc2nc3ncc(Br)cc3[nH]2)c1	-11.6	-3.7%	-5.0%	-3.7%
COc1cccc(C(=O)NC2CC3CCCC(C2)N3Cc2ccc(C)cc2)c1 (stereo not drawn)	x	32.8%	3.7%	-6.1%
Cc1cccc(N(C(=O)c2csnn2)C(C(=O)NC2CCCC2)c2ccncc2)c1 (stereo not drawn)	x	-2.7%	-0.3%	0.3%
Cc1cc(O)c(S(=O)(=O)c2ccccc2)c(C)c1NS(=O)(=O)c1ccccc1	x	17.1%	0.7%	16.5%
COc1ccc(C(=O)NCC(=O)OCC(=O)NC23CC4CC(CC(C4)C2)C3)cc1	x	-13.6%	-0.3%	x
NC(=O)CC(NC(=O)Cc1ccc(Br)cc1)c1ccc(NCC2CC2)c([N+](=O)[O-])c1 (stereo not drawn)	8.3	19.7%	0.7%	-3.9%
COc1ccc(NC(=O)c2[nH]c(C)c(C(C)=O)c2C)cc1Cl	-9.8	-8.3%	3.8%	-24.1%
COCCN(CC(=O)NCc1ccccc1)C(=O)CCC(=O)Nc1ccccn1	1.2	7.5%	2.4%	-4.0%
Cc1ccc(C(=O)Cn2c(C(=O)/C=C/c3ccccc3)nc3ccccc32)cc1	-12.2	-7.3%	4.5%	0.1%
CCOC(=O)[C@H]1[C@H]2COc3cc(OC)ccc3[C@@H]2N2C(=O)c3c(C)cc(C)cc3NC(=O)[C@@]12C	x	12.0%	1.5%	x
CC(C)CC(=O)Nc1nnc(-c2ccco2)s1	3.7	-7.1%	0.8%	-56.8%
c1ccc(NCCc2ccccn2)cc1	x	-19.9%	0.1%	x
Cc1occc1C(=O)n1nnc2ccccc21	8.0	24.8%	0.8%	1.3%
CC#CCN(Cc1ccco1)C(=O)c1ccc(OC2CCN(Cc3ccccn3)CC2)cc1	x	-7.9%	0.4%	-0.6%
Cc1c(O[C@@H]2O[C@H](CO)[C@@H](O)[C@H](O)[C@H]2O)c(CO)c(O[C@@H]2O[C@H](CO)[C@@H](O)[C@H](O)[C@H]2O)c2c1O[C@@H](c1ccccc1)C[C@@H]2O	x	2.8%	0.4%	x
